# Compound activity from PubChem.
# TNAP activation fold – stimulation of alkaline phosphatase TNAP activity – biochemical, luminescent, no phosphate acceptor, uHTS, primary screen (AID 1001); purified TNAP, luminescent activation assay, no phosphate acceptor; higher activation fold means a stronger effect; activation fold at 20 µM, or EC50 in µM where a hit was titrated; 0.03% of 200,000 active; in the data active = activation fold from about 3, or a potency from the dose series; inactive = the rest, 99 in 100 with activation fold below about 1.6; note: many of its hits are not listed in these tables
# PMI inhibition – MPI inhibition at elevated mannose 6-phosphate – biochemical, fluorescence intensity, high mannose 6-phosphate, primary screen (AID 1220) | recombinant PMI enzyme, coupled fluorescence intensity; higher % means a stronger effect | one-dose inhibition, % at 20 µM; IC50 in µM for titrated hits | 0.66% of 190,000 active
# LYP inhibition – PTPN22 lymphoid phosphatase activity blockers – biochemical, fluorescence intensity, uHTS (AID 1779); recombinant LYP phosphatase, fluorescence intensity; higher % means a stronger effect; inhibition, % at 11.5 µM; hits with a dose series show IC50 in µM; 0.054% of 290,000 active;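 note: plate controls were vehicle with enzyme for no effect and no enzyme for full effect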
# human PMI inhibition – inhibitors of human PMI, primary screen, biochemical, fluorescence intensity, coupled assay (AID 1209); one-dose inhibition, % at 20 µM; IC50 in µM for titrated hits; 0.42% of 190,000 active; purified PMI enzyme, coupled fluorescence intensity; higher % means a stronger effect;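 note: plate controls were DMSO vehicle for no effect and wells lacking substrate for full effect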
# XIAP antagonists – small molecules displacing peptide from XIAP – biochemical, IAP family, fluorescence polarization (AID 1018). XIAP BIR domain, fluorescence polarization peptide displacement; higher % means a stronger effect. displacement, % at 20 µM; hits with a dose series show IC50 in µM. 0.007% of 200,000 active; in the data active = displacement above about 50%; note: a part of the inactive calls stands beside numbers as strong as those of hits
# * hit, by the source's call; x = not tested or not shown; & = joins results of further samples. Cut-off read from the data, not from the text of the source, unless noted: active = inhibition above about 50%; inactive = the rest. Not all compounds are listed; the hit share may differ from the screen's.
SMILES,TNAP activation fold,PMI inhibition,LYP inhibition,human PMI inhibition,XIAP antagonists
CCn1nc(-c2ccccc2)nc2c(=O)n(C)c(=O)nc1-2,1,8%,61%*,-4%,-2.7%
Cc1ccc(NC(=O)Nc2nnc(-c3ccncc3)s2)cc1,1,3%,-2%,7%,0.8%
CN(C(=O)C(C)(C)C)c1ccc(OCC(=O)N2CCc3ccccc3C2)cc1,x,x,-6%,x,x
NC(=O)CSc1nnc([C@@H](N)Cc2c[nH]c3ccccc23)o1,1,-6%,-8%,-5%,-4.2%
Cc1nc(CN(C)C(=O)c2cc(COc3ccc4ncccc4c3)on2)cs1,1,10%,-4%,9%,-7.2%
C=CC[n+]1c(-c2ccc(Cl)cc2Cl)csc1Nc1c(C)n(C)n(-c2ccccc2)c1=O,1,8%,14%,4%,4.8%
CC(C)CC(NC(=O)CCCNC(=O)CCC(=O)OC1O[C@H]2OC3(C)CC[C@H]4[C@H](C)CCC(C1C)C24OO3)C(=O)O (stereo partly specified),x,x,-10%,x,x
CCC(NC(=O)c1ccc2nc(Cc3ccc(OC)cc3)oc2c1)c1ccncc1 (stereo unspecified),x,x,-12%,x,x
CC(NC(C)(C)C)C(=O)c1cccc(Cl)c1 (stereo unspecified),1.1,8%,-2%,-18%,-6.6%
CC1(C)C=C2[C@H]3CC[C@@H]4[C@@]5(C)CCC(=O)C(C)(C)[C@@H]5CC[C@@]4(C)[C@]3(C)CC[C@@]2(C(=O)O)CC1,1,-18%,-1%,-42%,-5.2%
O=C(Cn1cnc2sc3c(c2c1=O)CCCC3)NCCCC(=O)N1CCC2(CC1)OCCO2,1.1,-2%,-6%,2%,-1.6%
Oc1ccc2c3c1O[C@H]1c4[nH]c5ccccc5c4C[C@@]4(O)C(C2)N(CC2CC2)CC[C@]314,1.1,12%,-2%,10%,-3.9%
CCN1CCN(Cc2ccc(NC(=O)c3ccc(C)c(NC(=O)C(=O)c4c[nH]c5ccccc45)c3)cc2C(F)(F)F)CC1,x,x,-20%&-16%,x,x
Cc1ccc2cc3cc(C(=O)N4CCC5(CC4)OCCO5)oc3nc2c1,1.1,-6%,1%,-2%,-0.7%
Nc1ccc(S(=O)(=O)Nc2nccc(/C=C/c3cccc(Br)c3)n2)cc1,x,x,-10%,x,x
COc1ccc(NS(=O)(=O)c2ccc(NC(=O)c3ccc(CN4CCOCC4)cc3)cc2)cc1,1,x,-5%,x,-2.1%
O=C(Nc1ccc(Cl)cc1)c1ccc(CN2CCc3ccccc3C2)cc1,x,x,-9%,x,x
C=C1CC[C@@]2(O)[C@H]3Cc4ccc(O)c5c4[C@@]2(CCN3CC2CC2)[C@H]1O5,1.1,4%,-5%,6%,-0.8%
Cc1ccc(NC(=O)CC(=O)c2ccc([N+](=O)[O-])cc2)cc1S(=O)(=O)Nc1cccc(Cl)c1,1,-14%,0%,-6%,-4.7%
COCC1CCN(C(=O)c2cc(COc3ccc4ncccc4c3)on2)CC1,1.1,-1%,-7%,9%,-1.6%
CCc1ccc(-c2cc(C)no2)cc1S(=O)(=O)NCCCN1CCN(c2ccccc2)CC1,x,x,-8%,x,x

# Reprinted at random: two records from the list, in no set order.
SMILES,TNAP activation fold,PMI inhibition,LYP inhibition,human PMI inhibition,XIAP antagonists
Nc1ccc(S(=O)(=O)Nc2nccc(/C=C/c3cccc(Br)c3)n2)cc1,x,x,-10%,x,x
NC(=O)CSc1nnc([C@@H](N)Cc2c[nH]c3ccccc23)o1,1,-6%,-8%,-5%,-4.2%

# Some of these compounds in order of SMILES length, highest first.
SMILES,TNAP activation fold,PMI inhibition,LYP inhibition,human PMI inhibition,XIAP antagonists
CC1(C)C=C2[C@H]3CC[C@@H]4[C@@]5(C)CCC(=O)C(C)(C)[C@@H]5CC[C@@]4(C)[C@]3(C)CC[C@@]2(C(=O)O)CC1,1,-18%,-1%,-42%,-5.2%
CC(C)CC(NC(=O)CCCNC(=O)CCC(=O)OC1O[C@H]2OC3(C)CC[C@H]4[C@H](C)CCC(C1C)C24OO3)C(=O)O (stereo partly specified),x,x,-10%,x,x
CCN1CCN(Cc2ccc(NC(=O)c3ccc(C)c(NC(=O)C(=O)c4c[nH]c5ccccc45)c3)cc2C(F)(F)F)CC1,x,x,-20%&-16%,x,x
Oc1ccc2c3c1O[C@H]1c4[nH]c5ccccc5c4C[C@@]4(O)C(C2)N(CC2CC2)CC[C@]314,1.1,12%,-2%,10%,-3.9%
C=CC[n+]1c(-c2ccc(Cl)cc2Cl)csc1Nc1c(C)n(C)n(-c2ccccc2)c1=O,1,8%,14%,4%,4.8%
COc1ccc(NS(=O)(=O)c2ccc(NC(=O)c3ccc(CN4CCOCC4)cc3)cc2)cc1,1,x,-5%,x,-2.1%
CCc1ccc(-c2cc(C)no2)cc1S(=O)(=O)NCCCN1CCN(c2ccccc2)CC1,x,x,-8%,x,x
Nc1ccc(S(=O)(=O)Nc2nccc(/C=C/c3cccc(Br)c3)n2)cc1,x,x,-10%,x,x
CCC(NC(=O)c1ccc2nc(Cc3ccc(OC)cc3)oc2c1)c1ccncc1 (stereo unspecified),x,x,-12%,x,x
COCC1CCN(C(=O)c2cc(COc3ccc4ncccc4c3)on2)CC1,1.1,-1%,-7%,9%,-1.6%
CCn1nc(-c2ccccc2)nc2c(=O)n(C)c(=O)nc1-2,1,8%,61%*,-4%,-2.7%
CC(NC(C)(C)C)C(=O)c1cccc(Cl)c1 (stereo unspecified),1.1,8%,-2%,-18%,-6.6%
